Source: PubChem BioAssay (The Scripps Research Institute Molecular Screening Center)
TCR-CD3 inh: inhibitors of human TCR-CD3 interaction, primary screen, biochemical, fluorescence, TAMRA-labeled TCR probe; inhibition, % at 9.4 µM; 0.37% of 360,000 active; in the data active means inhibition above about 19%;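 further: recombinant mutant TCR 2C K166C tagged with TAMRA read by polarization; 0% = receptor in buffer alone and 100% = receptor with positive control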
SIAE inh: human SIAE inhibitors, primary screen, biochemical, fluorescence polarization, FP-Rh probe, 1536-well HTS; 0.69% of 370,000 active; inhibition, % at 9.66 µM; SIAE FP-Rh probe binding; AID 1053197, 2014;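 active means inhibition above a cutoff: mean of compounds within the control limits plus 3 SD of those, cut at about 17% in these data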;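 further: 0% = plate median of compound wells and 100% = probe without SIAE protein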
Tn6 DDE FP: inhibitors of Tn6 peptide binding to fibrin DD(E), primary screen, biochemical, fluorescence polarization, human fibrin, Tn6 probe; 0.21% of 370,000 active; inhibition, % at 8.3 µM; Fibrinogen beta chain (Homo sapiens), P02675; Fibrin DD(E) TRITC-Tn6 fluorescence polarization displacement; AID 720509, 2013;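 active means inhibition above a per-campaign cutoff: mean of compounds within control limits plus 3 SD, cut at about 15% in these data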;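 further: 0% = median of all compound wells on the plate and 100% = blocking peptide control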
Target sequence (P02675 whole entry, looked up): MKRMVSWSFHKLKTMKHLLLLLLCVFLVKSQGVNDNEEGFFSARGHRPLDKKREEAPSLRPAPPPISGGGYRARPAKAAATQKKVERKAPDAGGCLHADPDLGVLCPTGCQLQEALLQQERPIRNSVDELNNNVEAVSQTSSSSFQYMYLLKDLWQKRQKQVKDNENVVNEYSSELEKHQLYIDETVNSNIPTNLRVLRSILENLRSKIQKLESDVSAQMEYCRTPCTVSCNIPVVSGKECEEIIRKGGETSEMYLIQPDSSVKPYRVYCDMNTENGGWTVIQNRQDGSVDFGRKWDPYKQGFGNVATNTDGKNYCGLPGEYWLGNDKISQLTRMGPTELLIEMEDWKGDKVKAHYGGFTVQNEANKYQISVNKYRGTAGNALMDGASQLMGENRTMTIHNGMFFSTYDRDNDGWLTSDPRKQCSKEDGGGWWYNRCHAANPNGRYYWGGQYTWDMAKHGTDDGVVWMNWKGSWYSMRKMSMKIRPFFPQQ
DDE Tn7 FP inh: inhibitors of Tn7 peptide binding to fibrin DD(E), primary screen, biochemical, fluorescence polarization, human fibrin, Tn7 probe | Fibrinogen beta chain (Homo sapiens), P02675 | FP displacement of FITC-Tn7 peptide from fibrin DD(E); 0% = median of compound wells per plate | inhibition, % at 8.3 µM | 0.13% of 370,000 active;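 active means inhibition above the mean of compounds falling within the control limits plus 3 SD of them, cut at about 14% in these data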;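 further: 0% = plate median of compound wells and 100% = 10 µM Aha-Tn7 peptide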
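system = human fibrin DD(E) protein | quantity = DD(E) 2 µM final | medium = Tris/NaCl/CaCl2 buffer, pH 7.8 | also added = labelled Tn7 tracer, 0.1 µM | compound dosing = single point at 8.3 µM | timing = compound with protein 10 min, then 3 h after probe, room temperature | signal = FP measurement | benchmarks = Aha-Tn7 high control | repeats = one replicate per compound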
PRMT1 inh: PRMT1 methyltransferase inhibitors, primary screen, biochemical, fluorescence polarization | Protein arginine N-methyltransferase 1 (Homo sapiens), Q99873 | recombinant PRMT1, activity-based probe fluorescence polarization | 1.3% of 370,000 active | inhibition, % at 2.79 µM;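 active means inhibition above about 21% made by adding two undisclosed values, limit read from the data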
* hit, by the source's call; & = joins results of further samples. The list is partial (hit frequency here may not be typical).

| cpd | structure | TCR-CD3 inh | SIAE inh | Tn6 DDE FP | DDE Tn7 FP inh | PRMT1 inh |
| --- | --- | --- | --- | --- | --- | --- |
| 1 | c1ccc(-c2ccc(-c3n(-c4ccccn4)c4ccccc4[n+]3-c3ccccn3)cc2)cc1 | 4 | 4 | -2 | -4 | 7 |
| 2 | C[C@]12CCC3C(CC[C@H]4CC(=O)CC[C@]34C)C1CCC2=O (stereo partly drawn) | 4 | -5 | 3 | -1 | -4 |
| 3 | CC(C)N(CCC(C(N)=O)(c1ccccc1)c1ccccn1)C(C)C (stereo not drawn) | 3&6 | -1&-4 | 0&5 | -1&1 | -5&-1 |
| 4 | O=P(C(Cl)Cl)(N1CCCCC1)N1CCCCC1 | 7 | 2 | 8 | -2 | 1 |
| 5 | CN1CC[C@]23c4c5ccc(O)c4OC2C(O)C=CC3[C@H]1C5 (stereo partly drawn) | -6 | 0 | 2 | -2 | -2 |
| 6 | C[C@]12CCC(=O)C=C1CCC1C2CC[C@@]2(C)C1CC[C@@H]2O (stereo partly drawn) | 6 | -5 | -4 | -6 | -4 |
| 7 | CC(C)(O)/C=C/C(=O)C(C)(O)C1C(O)CC2(C)C3CC=C4C(C=C(O)C(=O)C4(C)C)C3(C)C(=O)CC12C (stereo not drawn) | -1 | 4 | 2 | 1 | -6 |

Values by screen from the list.
TCR-CD3 inh for entries 1–7 → 4, 4, 3&6, 7, -6, 6, -1
PRMT1 inh for entries 1–7 → 7, -4, -5&-1, 1, -2, -4, -6
Tn6 DDE FP for entries 1–7 → -2, 3, 0&5, 8, 2, -4, 2

Full records, looked up by structure. Order of values: TCR-CD3 inh, SIAE inh, Tn6 DDE FP, DDE Tn7 FP inh, PRMT1 inh
CC(C)N(CCC(C(N)=O)(c1ccccc1)c1ccccn1)C(C)C (stereo not drawn) across the screens: 3&6, -1&-4, 0&5, -1&1, -5&-1
C[C@]12CCC(=O)C=C1CCC1C2CC[C@@]2(C)C1CC[C@@H]2O (stereo partly drawn) across the screens: 6, -5, -4, -6, -4
C[C@]12CCC3C(CC[C@H]4CC(=O)CC[C@]34C)C1CCC2=O (stereo partly drawn) across the screens: 4, -5, 3, -1, -4

As entered above.
#2 – TCR-CD3 inh: 4
#5 – TCR-CD3 inh: -6
#4 – DDE Tn7 FP inh: -2
